AF4-AF9 inh: MLL-AF4/AF9 protein interaction inhibition. hit rate 0.47% among 350,000. P42568. inhibition, % at 10 µM. AlphaScreen, biotin-AF4 peptide binding to FLAG-AF9. AID 651704;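 active means every replicate reaching a set inhibition limit, whatever the replicate mean, cut at about 25% in these data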;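 further: 0% = plate neutral control median and 100% = total signal loss; the record names both 10 and 1 µM as test concentration; the first replicate is given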
Target sequence (P42568 whole entry, looked up): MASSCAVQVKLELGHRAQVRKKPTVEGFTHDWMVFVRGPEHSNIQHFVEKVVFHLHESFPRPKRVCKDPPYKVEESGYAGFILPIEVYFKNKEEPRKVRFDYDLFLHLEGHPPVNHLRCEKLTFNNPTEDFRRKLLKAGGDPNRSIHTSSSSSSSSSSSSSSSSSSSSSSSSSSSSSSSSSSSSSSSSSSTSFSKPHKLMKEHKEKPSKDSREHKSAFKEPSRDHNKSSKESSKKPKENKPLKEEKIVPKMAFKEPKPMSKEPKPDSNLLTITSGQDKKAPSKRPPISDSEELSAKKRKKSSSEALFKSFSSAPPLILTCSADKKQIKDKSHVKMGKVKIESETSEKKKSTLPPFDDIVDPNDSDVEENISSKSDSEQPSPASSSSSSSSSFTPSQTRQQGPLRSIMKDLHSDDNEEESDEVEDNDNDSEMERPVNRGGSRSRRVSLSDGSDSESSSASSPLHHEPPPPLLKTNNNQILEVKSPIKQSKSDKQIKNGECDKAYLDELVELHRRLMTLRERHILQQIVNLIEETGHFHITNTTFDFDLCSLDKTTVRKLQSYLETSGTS
Ecoli rRNA inh: inhibitors of bacterial rRNA selective over humanized ribosomes; E. coli WT GFP vs humanized-ribosome RFP mutants, fluorescence, 24 h; active compounds read low; DMSO median 0, no signal -100; GFP signal change (wild-type ribosome), % (concentration not given with the values); hit rate 1.6% among 350,000;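 active means significant combined selectivity score with lowered wild-type GFP, culture density cut under 30%, mutant RFP and density less affected; inactive means any of these conditions unmet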; further: one replicate is shown; some compounds called inactive have numbers as strong as hits
Ecoli rRNA inh OD600: also measured in Ecoli rRNA inh; calls as there; OD600 change, %; measured here: OD600 growth;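 optical density of the mix in the first replicate; 0 = DMSO median and -100 = no signal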
Ecoli rRNA inh RFP: further read-out of Ecoli rRNA inh, marked with its call; RFP signal change, %; measured here: RFP humanized mutant strains;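 first replicate; 0 = DMSO median and -100 = no signal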
The depositor's hits bear a star. A portion of the library. The share of hits here may be higher or lower than overall.

Results for COc1ccc(Nc2c(C3CC3)nc3nc(C)cc(C)n23)cc1 ?
AF4-AF9 inh: 2.7; Ecoli rRNA inh: 11; Ecoli rRNA inh OD600: 21; Ecoli rRNA inh RFP: 3.1

How did COCCNC(=O)C[C@@H]1CC[C@H]2[C@H](COc3ccc(NC(=O)C4CCOCC4)cc3C(=O)N2C)O1 do in these assays?
AF4-AF9 inh: -1.4; Ecoli rRNA inh: 0; Ecoli rRNA inh OD600: 2; Ecoli rRNA inh RFP: -0.3

What do the screens show for `C[C@H](CO)N1C[C@H](C)[C@H](CN(C)S(C)(=O)=O)Oc2ccc(NS(=O)(=O)c3cccs3)cc2C1=O`?
AF4-AF9 inh: -2.4; Ecoli rRNA inh: 2; Ecoli rRNA inh OD600: -3; Ecoli rRNA inh RFP: 0.5

Results for COc1ccc(-c2cn(CC[C@@H]3CC[C@@H](NC(=O)CCN4CCCCC4)[C@H](CO)O3)nn2)cc1 ?
AF4-AF9 inh: 4.3; Ecoli rRNA inh: 3; Ecoli rRNA inh OD600: 9; Ecoli rRNA inh RFP: -3.1

What do the screens show for `C[C@H]1CN([C@@H](C)CO)C(=O)Cc2cc(NC(=O)Nc3ccccc3)ccc2O[C@H]1CN(C)S(C)(=O)=O`?
AF4-AF9 inh: 0.2; Ecoli rRNA inh: -1; Ecoli rRNA inh OD600: 5; Ecoli rRNA inh RFP: 2.0

How did CS(=O)(=O)N1[C@H](C#N)[C@@H](c2ccc(C#CC3CC3)cc2)[C@@H]1CO do in these assays?
AF4-AF9 inh: -0.5; Ecoli rRNA inh: 3; Ecoli rRNA inh OD600: -2; Ecoli rRNA inh RFP: -0.9

Results for Cc1cccc(S(=O)(=O)N(C)C[C@H]2OCc3ccccc3-c3c(n(C)c4ccccc34)C(=O)N([C@H](C)CO)C[C@H]2C)c1 ?
AF4-AF9 inh: 6.8; Ecoli rRNA inh: 4; Ecoli rRNA inh OD600: 2; Ecoli rRNA inh RFP: -1.2

Results for CN1CCN(C(=O)C[C@H]2C[C@H]3c4cc(NC(=O)NC5CCCCC5)ccc4O[C@H]3[C@H](CO)O2)CC1 ?
AF4-AF9 inh: -0.2; Ecoli rRNA inh: 3; Ecoli rRNA inh OD600: -4; Ecoli rRNA inh RFP: 0.6

What do the screens show for `O=C(c1ccccc1)N1CC(=O)N2[C@H](C1)[C@@H](c1ccc(C#Cc3ccccc3)cc1)[C@@H]2CO`?
AF4-AF9 inh: -0.9; Ecoli rRNA inh: 7; Ecoli rRNA inh OD600: 19; Ecoli rRNA inh RFP: -1.9

Results for COc1ccc2c3c(n(C)c2c1)[C@H](CO)N(Cc1nccs1)CC31CN(C(=O)CN(C)C)C1 ?
AF4-AF9 inh: -5.6; Ecoli rRNA inh: -1; Ecoli rRNA inh OD600: 15; Ecoli rRNA inh RFP: -2.3

How did CN1CCN(C(=O)C[C@@H]2CC[C@@H]3[C@@H](COc4ccc(NC(=O)C5CCOCC5)cc4C(=O)N3C)O2)CC1 do in these assays?
AF4-AF9 inh: 1.5; Ecoli rRNA inh: 4; Ecoli rRNA inh OD600: 6; Ecoli rRNA inh RFP: -0.9

How did COc1ccc(C(C)(O)c2nc(-c3ccccc3)cs2)cc1 (configuration not stated) do in these assays?
AF4-AF9 inh: -3.4; Ecoli rRNA inh: -2; Ecoli rRNA inh OD600: -4; Ecoli rRNA inh RFP: 0.3

How did CNC[C@H]1Oc2ccc(NS(=O)(=O)c3ccc(C)cc3)cc2CC(=O)N([C@H](C)CO)C[C@@H]1C do in these assays?
AF4-AF9 inh: -0.7; Ecoli rRNA inh: -2; Ecoli rRNA inh OD600: 2; Ecoli rRNA inh RFP: 0.2

Results for C[C@@H]1CN([C@@H](C)CO)C(=O)c2c(c3ccccc3n2C)-c2ccccc2CO[C@@H]1CN(C)S(=O)(=O)c1ccc(C(F)(F)F)cc1 ?
AF4-AF9 inh: 2.4; Ecoli rRNA inh: 2; Ecoli rRNA inh OD600: 5; Ecoli rRNA inh RFP: -1.1

How did C[C@H](NC(=O)C[C@H]1C[C@H]2c3cc(NC(=O)CC4CC4)ccc3O[C@H]2[C@@H](CO)O1)c1ccccc1 do in these assays?
AF4-AF9 inh: -1.3; Ecoli rRNA inh: -1; Ecoli rRNA inh OD600: 0; Ecoli rRNA inh RFP: -2.6

Results for C[C@@H]1CN([C@H](C)CO)C(=O)c2cc(NC(=O)c3ccncc3)ccc2O[C@@H](C)CCCCO[C@@H]1CN(C)Cc1ccccc1 ?
AF4-AF9 inh: -2.1; Ecoli rRNA inh: 0; Ecoli rRNA inh OD600: 9; Ecoli rRNA inh RFP: -0.4

How did COc1ccc2c3c([nH]c2c1)[C@H](CO)N(C(=O)CN(C)C)CC31CN(C(=O)c2ccncc2)C1 do in these assays?
AF4-AF9 inh: 1.8; Ecoli rRNA inh: 1; Ecoli rRNA inh OD600: 7; Ecoli rRNA inh RFP: -5.8

How did CCC(=O)N[C@@H]1CC[C@H](CC(=O)NCC2CC2)O[C@H]1CO do in these assays?
AF4-AF9 inh: -3.4; Ecoli rRNA inh: 9; Ecoli rRNA inh OD600: 9; Ecoli rRNA inh RFP: -0.9

What do the screens show for `CCCc1cn(CC[C@H]2CC[C@@H](NC(=O)Nc3ccc4c(c3)OCO4)[C@@H](CO)O2)nn1`?
AF4-AF9 inh: 0.1; Ecoli rRNA inh: 0; Ecoli rRNA inh OD600: 0; Ecoli rRNA inh RFP: 0.1

How did COc1cccc(C#Cc2ccc([C@H]3[C@@H](CO)N4C(=O)CN(S(=O)(=O)c5ccccc5C)C[C@H]34)cc2)c1 do in these assays?
AF4-AF9 inh: 0.8; Ecoli rRNA inh: 6; Ecoli rRNA inh OD600: 8; Ecoli rRNA inh RFP: 0.8

How did COc1ccc(S(=O)(=O)Nc2ccc3c(c2)C(=O)N([C@@H](C)CO)C[C@@H](C)[C@H](CN(C)Cc2ccc(C(F)(F)F)cc2)O3)cc1 do in these assays?
AF4-AF9 inh: 3.9; Ecoli rRNA inh: -1; Ecoli rRNA inh OD600: 1; Ecoli rRNA inh RFP: -2.0

What do the screens show for `Cc1ccc(S(=O)(=O)N(C)C[C@H]2Oc3ccc(NC(=O)Cc4ccccc4)cc3C(=O)N([C@H](C)CO)C[C@@H]2C)cc1`?
AF4-AF9 inh: -0.8; Ecoli rRNA inh: 0; Ecoli rRNA inh OD600: 6; Ecoli rRNA inh RFP: 1.1

How did COc1ccccc1-c1cn(CC[C@H]2CC[C@H](NC(=O)Cc3ccccn3)[C@@H](CO)O2)nn1 do in these assays?
AF4-AF9 inh: 0.2; Ecoli rRNA inh: 3; Ecoli rRNA inh OD600: 6; Ecoli rRNA inh RFP: -1.5

How did CO[C@@H]1CN(C)C(=O)c2ccc(NC(=O)C3CCC3)cc2OC[C@H](C)N(C)C[C@H]1C do in these assays?
AF4-AF9 inh: 0.9; Ecoli rRNA inh: 2; Ecoli rRNA inh OD600: 8; Ecoli rRNA inh RFP: -6.2

Results for O=C(COC(=O)c1ccco1)NCC1CCCCC1 ?
AF4-AF9 inh: 0.2; Ecoli rRNA inh: 5; Ecoli rRNA inh OD600: 15; Ecoli rRNA inh RFP: 3.8

Results for COc1cccc(NC(=O)N[C@H]2CC[C@H](CC(=O)N3CCOCC3)O[C@@H]2CO)c1 ?
AF4-AF9 inh: 0.1; Ecoli rRNA inh: 3; Ecoli rRNA inh OD600: 6; Ecoli rRNA inh RFP: -2.8

Results for C[C@H]1CN([C@@H](C)CO)C(=O)c2cc(NS(C)(=O)=O)ccc2O[C@H]1CN(C)S(=O)(=O)c1cccs1 ?
AF4-AF9 inh: -2.4; Ecoli rRNA inh: 2; Ecoli rRNA inh OD600: 9; Ecoli rRNA inh RFP: -0.7

What do the screens show for `C[C@H](CO)N1C[C@H](C)[C@H](CN(C)C(=O)C2CCCCC2)OCCCC[C@H](C)Oc2ccc(NC(=O)NC3CCCCC3)cc2C1=O`?
AF4-AF9 inh: 0.5; Ecoli rRNA inh: -6; Ecoli rRNA inh OD600: -1; Ecoli rRNA inh RFP: -1.0

How did O=C([C@H]1N[C@H]2c3ccc(-c4ccccc4F)c(=O)n3C[C@H]2[C@@H]1CO)N1CCc2ccccc2C1 do in these assays?
AF4-AF9 inh: -2.1; Ecoli rRNA inh: -3; Ecoli rRNA inh OD600: -9; Ecoli rRNA inh RFP: 3.5

What do the screens show for `COc1ccc(C(=O)N2[C@@H](C(C)C)COc3cc(Br)ccc3S2(=O)=O)cc1`?
AF4-AF9 inh: -0.8; Ecoli rRNA inh: 4; Ecoli rRNA inh OD600: 9; Ecoli rRNA inh RFP: 2.5

Results for C[C@H]1CCCCO[C@H](CN(C)C(=O)Cc2ccccc2)[C@@H](C)CN([C@@H](C)CO)C(=O)c2cc(NS(C)(=O)=O)ccc2O1 ?
AF4-AF9 inh: -0.3; Ecoli rRNA inh: -1; Ecoli rRNA inh OD600: -5; Ecoli rRNA inh RFP: -0.9

How did C[C@H]1CN([C@@H](C)CO)C(=O)c2cc(C#CCN(C)C)cnc2O[C@H]1CN(C)C(=O)c1cnccn1 do in these assays?
AF4-AF9 inh: -3.9; Ecoli rRNA inh: 9; Ecoli rRNA inh OD600: 16; Ecoli rRNA inh RFP: -3.9

What do the screens show for `O=C(O)C[C@H]1C[C@H]2c3cc(NS(=O)(=O)c4ccc(F)cc4)ccc3O[C@H]2[C@@H](CO)O1`?
AF4-AF9 inh: -2.2; Ecoli rRNA inh: 3; Ecoli rRNA inh OD600: 0; Ecoli rRNA inh RFP: -2.8

Results for COCC(=O)N1CC(=O)N2[C@H](CO)[C@@H](c3ccc(C#CCc4ccccc4)cc3)[C@@H]2C1 ?
AF4-AF9 inh: -1.0; Ecoli rRNA inh: -1; Ecoli rRNA inh OD600: -3; Ecoli rRNA inh RFP: 1.9

Results for CCCC#Cc1ccc2c(c1)O[C@@H](CN(C)Cc1ccncc1)[C@H](C)CN([C@@H](C)CO)S2(=O)=O ?
AF4-AF9 inh: 7.5; Ecoli rRNA inh: -42; Ecoli rRNA inh OD600: -58; Ecoli rRNA inh RFP: 1.7

What do the screens show for `CCCS(=O)(=O)NC(=O)C1(C)CCN(C(=O)c2cc(-c3cccs3)oc2C)C1` (configuration not stated)?
AF4-AF9 inh: -2.0; Ecoli rRNA inh: 4; Ecoli rRNA inh OD600: 11; Ecoli rRNA inh RFP: -1.5

How did Cc1ccc(S(=O)(=O)N[C@H]2C=C[C@H](CC(=O)NCCCN(C)C)O[C@@H]2CO)cc1 do in these assays?
AF4-AF9 inh: 0.2; Ecoli rRNA inh: 5; Ecoli rRNA inh OD600: 12; Ecoli rRNA inh RFP: 1.5

What do the screens show for `CC(C)CC#Cc1cnc2c(c1)C(=O)N([C@H](C)CO)C[C@H](C)[C@H](CN(C)Cc1ccccn1)O2`?
AF4-AF9 inh: -3.0; Ecoli rRNA inh: 2; Ecoli rRNA inh OD600: 1; Ecoli rRNA inh RFP: 0.9

What do the screens show for `CCOC(=O)C1=CC[C@@H](c2ccc(OC)cc2)N(S(=O)(=O)c2ccc(C)cc2)[C@H]1CC`?
AF4-AF9 inh: 0.8; Ecoli rRNA inh: 7; Ecoli rRNA inh OD600: 10; Ecoli rRNA inh RFP: 0.2

How did C[C@H](CO)N1C[C@H](C)[C@H](CN(C)CC2CCCCC2)Oc2ccc(NS(=O)(=O)c3ccc(Cl)cc3)cc2CC1=O do in these assays?
AF4-AF9 inh: 13; Ecoli rRNA inh: -51; Ecoli rRNA inh OD600: -72; Ecoli rRNA inh RFP: -5.5

How did Cc1ccc([C@@H]2CC=C(C(=O)O)[C@H](c3ccc(Br)cc3)N2S(=O)(=O)c2ccccc2C)cc1 do in these assays?
AF4-AF9 inh: -2.6; Ecoli rRNA inh: -32; Ecoli rRNA inh OD600: -53; Ecoli rRNA inh RFP: -6.5

Results for C[C@@H]1CN([C@@H](C)CO)C(=O)c2cc(NC(=O)CCCCCC(=O)Nc3ccccc3N)ccc2O[C@@H](C)CCCCO[C@@H]1CN(C)C(=O)Nc1ccc(C(F)(F)F)cc1 ?
AF4-AF9 inh: -4.1; Ecoli rRNA inh: -1; Ecoli rRNA inh OD600: 9; Ecoli rRNA inh RFP: -2.0

Of the compounds above, five have fluorine.
Results for C[C@@H]1CN([C@@H](C)CO)C(=O)c2c(c3ccccc3n2C)-c2ccccc2CO[C@@H]1CN(C)S(=O)(=O)c1ccc(C(F)(F)F)cc1 ?
AF4-AF9 inh: 2.4; Ecoli rRNA inh: 2; Ecoli rRNA inh OD600: 5; Ecoli rRNA inh RFP: -1.1

How did COc1ccc(S(=O)(=O)Nc2ccc3c(c2)C(=O)N([C@@H](C)CO)C[C@@H](C)[C@H](CN(C)Cc2ccc(C(F)(F)F)cc2)O3)cc1 do in these assays?
AF4-AF9 inh: 3.9; Ecoli rRNA inh: -1; Ecoli rRNA inh OD600: 1; Ecoli rRNA inh RFP: -2.0

How did O=C([C@H]1N[C@H]2c3ccc(-c4ccccc4F)c(=O)n3C[C@H]2[C@@H]1CO)N1CCc2ccccc2C1 do in these assays?
AF4-AF9 inh: -2.1; Ecoli rRNA inh: -3; Ecoli rRNA inh OD600: -9; Ecoli rRNA inh RFP: 3.5

What do the screens show for `O=C(O)C[C@H]1C[C@H]2c3cc(NS(=O)(=O)c4ccc(F)cc4)ccc3O[C@H]2[C@@H](CO)O1`?
AF4-AF9 inh: -2.2; Ecoli rRNA inh: 3; Ecoli rRNA inh OD600: 0; Ecoli rRNA inh RFP: -2.8

Results for C[C@@H]1CN([C@@H](C)CO)C(=O)c2cc(NC(=O)CCCCCC(=O)Nc3ccccc3N)ccc2O[C@@H](C)CCCCO[C@@H]1CN(C)C(=O)Nc1ccc(C(F)(F)F)cc1 ?
AF4-AF9 inh: -4.1; Ecoli rRNA inh: -1; Ecoli rRNA inh OD600: 9; Ecoli rRNA inh RFP: -2.0

Screening data (PubChem BioAssay)
